# Compound activity (PubChem)
# HNF4A DNA FP: change in binding of human HNF4 alpha to DNA | HNF4a-FITC DNA binding, fluorescence polarization, 1 h | activity change, % at 10 µM | 0.3% of 360,000 active; in the data active = activity change above about 30%, passing the limit was not always enough;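 note: controls were the assay level and a saturating level of protein; the project sought stronger binding though the title names inhibitors; some compounds called inactive have numbers as strong as hits; positive values seem to mean higher polarization but the record does not say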
# UCH37 inh: human UCH37 deubiquitinating enzyme inhibition; purified proteasome/UCH37, Ub-AMC cleavage fluorescence; inhibition, % (no concentration beside the values); 0.33% of 330,000 active; AID 588478;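 active = mean of two replicates above 20%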;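 note: 0% = compound-free wells with enzyme and 100% = wells lacking proteasome; stock transfer was 100 nL into about 20 µL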
#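 Signal – fluorescence, ex 355 nm, em 460 nm · System – Proteasome-bound UCH37 · Input – 0.15 nM proteasome as dispensed · Timing – 30 min preincubation with enzyme, 25 min cleavage at room temperature · Read-out basis – percent inhibition of cleavage signal versus uninhibited and no-proteasome wells · Medium – Tris-HCl pH 7.4 with ATP-MgCl2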
# ALR H2O2 inh: blocks human ALR sulfhydryl oxidase activity; AID 485317; 3.8% of 290,000 active; purified ALR, DTT oxidation, H2O2 HRP-luminol luminescence; inhibition, % (concentration not given with the values);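 active = mean and each replicate at 75% or more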;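 note: stock transfer was 7.5 nL into about 7.5 µL; 0% = neutral wells and 100% = wells with inactivated enzyme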
# E coli growth: E. coli growth inhibition; Escherichia coli growth, OD600, 23 h; stronger effect = lower value; OD600 absorbance (concentration not given with the values); 0.21% of 330,000 active; AID 1053175;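 active = OD600 absorbance below the run mean of sample wells minus 3.6 SD, in any replicate, cut at about 0.56 in these data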;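 note: stock transfer was 300 nL into about 60 µL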
# FGF22 binding: FGF22 (human) thermal shift binding. 1.5% of 340,000 active. recombinant FGF22 thermal shift, SYPRO orange fluorescence; percent of sucrose octasulfate shift, DMSO zero. calls only at 9.99 µM;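 active = melting point raised past a set limit in the mean and every replicate; three in four hits are not shown here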
# B2AR ag: activates human beta-2 adrenergic receptor causing internalization; response, % (test concentration not listed); 0.43% of 340,000 active; AID 504454; Am2.2-beta2AR cells, FAP receptor internalization, flow cytometry; reference of the scale not given here; P07550;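 active = response above a set limit, near 3 SD of response in nonfluorescent compounds, cut at about 42% in these data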;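 note: stock transfer was 100 nL into about 11 µL; a reference agonist was the positive control; negative values mostly stem from fluorescent compounds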
# LANA-H2B inh: blocks KSHV LANA binding to histone H2A/H2B | Q9QR71 | cell-free LANA-H2A/H2B peptide, fluorescence polarization | inhibition, % (no concentration beside the values) | 0.6% of 320,000 active; in the data active = inhibition mostly above about 10%, no sharp cut-off; inactive = mostly below about 6.7%;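 note: stock transfer was 7.5 nL into about 10 µL; 0% = median of vehicle wells and 100% = median of positive control wells; one replicate is shown; the record names a cut of 25% in any replicate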
# Target sequence (Q9QR71 whole entry, looked up): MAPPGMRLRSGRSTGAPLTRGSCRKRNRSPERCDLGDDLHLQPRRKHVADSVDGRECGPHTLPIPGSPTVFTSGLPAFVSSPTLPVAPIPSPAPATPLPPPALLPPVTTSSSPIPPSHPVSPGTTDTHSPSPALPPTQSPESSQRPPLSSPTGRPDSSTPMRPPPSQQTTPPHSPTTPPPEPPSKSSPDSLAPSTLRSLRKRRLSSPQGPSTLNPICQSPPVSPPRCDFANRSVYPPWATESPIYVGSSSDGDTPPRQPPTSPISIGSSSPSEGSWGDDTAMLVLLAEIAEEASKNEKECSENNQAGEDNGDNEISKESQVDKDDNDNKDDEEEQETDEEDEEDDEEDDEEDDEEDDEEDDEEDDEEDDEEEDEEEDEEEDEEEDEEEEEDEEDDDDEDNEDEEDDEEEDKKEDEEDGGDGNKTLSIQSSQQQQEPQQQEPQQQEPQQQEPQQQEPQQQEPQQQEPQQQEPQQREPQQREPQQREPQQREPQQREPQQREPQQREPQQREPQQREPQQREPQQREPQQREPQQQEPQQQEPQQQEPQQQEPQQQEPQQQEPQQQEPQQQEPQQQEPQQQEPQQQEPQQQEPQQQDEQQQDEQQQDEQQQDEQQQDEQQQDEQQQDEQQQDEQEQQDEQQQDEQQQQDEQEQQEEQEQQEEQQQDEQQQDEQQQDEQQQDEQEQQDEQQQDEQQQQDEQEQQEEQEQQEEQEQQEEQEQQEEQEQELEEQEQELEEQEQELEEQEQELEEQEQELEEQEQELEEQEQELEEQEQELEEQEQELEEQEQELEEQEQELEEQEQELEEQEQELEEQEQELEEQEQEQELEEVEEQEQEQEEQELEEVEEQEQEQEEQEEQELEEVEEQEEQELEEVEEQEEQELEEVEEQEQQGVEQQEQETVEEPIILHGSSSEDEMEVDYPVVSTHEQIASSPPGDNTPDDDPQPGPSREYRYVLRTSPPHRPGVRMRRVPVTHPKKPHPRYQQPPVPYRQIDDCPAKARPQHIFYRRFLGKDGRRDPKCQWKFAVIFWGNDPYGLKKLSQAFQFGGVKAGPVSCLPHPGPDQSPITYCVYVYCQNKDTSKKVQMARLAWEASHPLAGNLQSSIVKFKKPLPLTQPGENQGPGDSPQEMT
# Starred values were filed as active, the others as inactive; i = inactive; x = no result given.
SMILES,HNF4A DNA FP,UCH37 inh,ALR H2O2 inh,E coli growth,FGF22 binding,B2AR ag,LANA-H2B inh
CC1=C(C(=O)OCC2CCCO2)C(c2ccc(Cl)cc2)NC(=O)N1 (stereo unspecified),-2.5,6.0,-33,0.7,i,-4,0.2
COc1ccc(NC(=O)CN(C)S(=O)(=O)c2ccc3c(c2)c(=O)n(C)c(=O)n3C)cc1,1.7,-1.4,-3,0.66,i,3,6.4
O=C(NCC(c1ccco1)N1CCN(c2ccccc2)CC1)C(=O)NC1CCCC1 (stereo unspecified),-0.1,-0.2,-13,0.63,i,-1,4.1
Cn1c(SCc2cccnc2)nc2c(c1=O)SCC2,-0.7,3.3,99*,0.66,i,-1,0.2
CCOC(=O)CSc1nn(-c2ccccc2)c(=S)s1,-2.4,2.1,-3,0.71,i,4,-2.1
O=C(Nc1cc(Cl)ccc1O)c1cc(-c2ccco2)on1,1.6,2.5,x,0.67,i,16,-0.5
COc1cc(/C=C2\COC/C(=C\c3cc(OC)c(OC)c(OC)c3)C2=O)cc(OC)c1OC,2.3,5.5,x,0.6,i,43*,x
O=C(c1ccc(Cl)cc1)C1CCN(C(=O)c2ccccc2)CC1,7.2,1.5,x,0.6,i,-12,-0.2
CCOC(=O)c1cccc(-c2c(-c3ccccc3)ncc3cc(OC)c(OC)cc23)c1,-1.5,1.4,-7,0.73,i,-5,7.0
CCn1cc(Br)c(C(=O)NC(C)c2ccccc2)n1 (stereo unspecified),-1.0,0.5,17,0.71,x,3,-2.2
O=c1c2ccccc2ncn1Cc1ccc(Cl)c(Cl)c1,0.4,3.3,0,0.66,i,-12,14
O=C(Nc1ccc2nsnc2c1)c1ccc2c(c1)OCO2,2.8,-8.2,-14,0.77,i,2,-0.2

# Shown with tabs: entries from further up.
compound	HNF4A DNA FP	UCH37 inh	ALR H2O2 inh	E coli growth	FGF22 binding	B2AR ag	LANA-H2B inh
O=C(NCC(c1ccco1)N1CCN(c2ccccc2)CC1)C(=O)NC1CCCC1 (stereo unspecified)	-0.1	-0.2	-13	0.63	i	-1	4.1
Cn1c(SCc2cccnc2)nc2c(c1=O)SCC2	-0.7	3.3	99*	0.66	i	-1	0.2
CCOC(=O)CSc1nn(-c2ccccc2)c(=S)s1	-2.4	2.1	-3	0.71	i	4	-2.1
O=C(Nc1cc(Cl)ccc1O)c1cc(-c2ccco2)on1	1.6	2.5	x	0.67	i	16	-0.5
COc1cc(/C=C2\COC/C(=C\c3cc(OC)c(OC)c(OC)c3)C2=O)cc(OC)c1OC	2.3	5.5	x	0.6	i	43*	x
O=C(c1ccc(Cl)cc1)C1CCN(C(=O)c2ccccc2)CC1	7.2	1.5	x	0.6	i	-12	-0.2
CCOC(=O)c1cccc(-c2c(-c3ccccc3)ncc3cc(OC)c(OC)cc23)c1	-1.5	1.4	-7	0.73	i	-5	7.0
CCn1cc(Br)c(C(=O)NC(C)c2ccccc2)n1 (stereo unspecified)	-1.0	0.5	17	0.71	x	3	-2.2
O=c1c2ccccc2ncn1Cc1ccc(Cl)c(Cl)c1	0.4	3.3	0	0.66	i	-12	14
O=C(Nc1ccc2nsnc2c1)c1ccc2c(c1)OCO2	2.8	-8.2	-14	0.77	i	2	-0.2

# Continued:
SMILES,HNF4A DNA FP,UCH37 inh,ALR H2O2 inh,E coli growth,FGF22 binding,B2AR ag,LANA-H2B inh
Cc1cc(C(=O)N/N=C/c2cc(Br)cc(Br)c2OC(=O)c2cccc(F)c2)n[nH]1,6.2,x,-4,x,i,21,3.0
Cc1ccc(NC(=O)CCNC(=O)c2ccco2)cc1,1.0,4.1,-25,0.69,x,9,-0.5
O=C(C1CC(c2ccc(F)cc2)=NO1)N1CCN(c2ccccc2)CC1 (stereo unspecified),1.5,0.0,1,0.75,i,1,0.2
COc1ccccc1N1CN(CCc2ccccc2)CNC1=S,1.2,2.4,-10,0.7,i,-2,-1.0
O=C(c1cccc(Cl)c1)N1CCN(C2CCCCCC2)CC1,2.4,1.5,3,0.75,x,8,10
Cc1ccc(N2C(=O)CC(Cc3ccc(Cl)cc3)C2=O)cc1 (stereo unspecified),-0.3,3.0,1,0.6,i,3,0.8
O=C1CCC(C(=O)Nc2ccc([N+](=O)[O-])cc2)N1 (stereo unspecified),4.1,3.3,3,0.69,i,-4,-2.4
Cc1cc(C)c(OCC(=O)N(Cc2ccccc2)C2CCS(=O)(=O)C2)c(C)c1 (stereo unspecified),-1.4,4.5,-3,0.64,i,-9,-1.8
O=C(Nc1ccccc1Cl)NC1(C(=O)N2CCCCC2)CCCCC1,-1.6,4.6,-2,0.7,x,-6,-5.9
COc1ccccc1OCC(O)Cn1c(=N)n(CCN2CCCCC2)c2ccccc21 (stereo unspecified),4.5,3.0,-11,0.69,x,37,1.1
Cc1nc([N+](=O)[O-])cn1CC(=O)Nc1ccc2c(c1)OCO2,-0.1,15,-4,0.69,i,-7,-6.8
O=C(O)CCCC(=O)Nc1ccc2c(c1)oc1ccccc12,-9.5,4.9,-14,0.67,i,3,-2.2
Cc1cc(N)n2nc(C(F)(F)F)nc2n1,3.2,0.0,-5,0.73,i,-6,-1.5
CN(C)S(=O)(=O)N1CCN(C(=O)N2CCCCC2)CC1,-1.2,1.4,0,0.68,x,7,-0.4
COc1ccc(S(=O)(=O)N2CCCCCC2)cc1C(=O)OCC(=O)NCC(C)C,-2.6,4.8,-1,0.73,x,14,-8.0
Cc1nn(C)c(N)c1-c1ccccc1,4.6,4.0,1,0.71,i,-2,4.1
CCC(Sc1nc2c(cnn2-c2ccc(Cl)cc2)c(=O)[nH]1)C(=O)OC (stereo unspecified),-2.0,-0.6,0,0.84,i,12,-0.3
COc1cc(/C=C(\C#N)C(=O)c2c(C)[nH]c3ccccc23)cc(OC)c1OC,-2.0,6.6,96*,0.68,i,-6,-1.3
COc1ccc(-c2nc(C#N)c(NCc3ccc(C)cc3)o2)cc1OC,-0.6,-13,-5,0.79,x,-3,2.6
Cc1cc(C)cc(NC(=O)CCn2c(=S)[nH]c3ccccc3c2=O)c1,2.1,1.6,-5,0.64,i,2,1.8
COc1ccc(-c2coc3cc(O)ccc3c2=O)cc1,-1.7,-23,-4,0.7,i,3,7.4
O=S(=O)(c1ccc(Cl)c(C(F)(F)F)c1)N1CCN(c2ccccn2)CC1,3.6,1.9,-8,0.68,i,-7,-1.5
COC(=O)c1cc2nc(-c3ccccc3)cc(C(F)(F)F)n2n1,2.0,-35,1,0.72,x,-7,-1.3
COc1ccc(S(=O)(=O)N2CCCCCC2)cc1C(=O)OCC(=O)Nc1cc(C)on1,x,-0.5,-9,0.66,x,x,1.6
c1cnc(NC2CCCCCC2)nc1,-2.8,-4.7,-1,0.67,i,0,-1.3
Cc1nc2ccccc2cc1C(=O)N(C)Cc1ccccc1,2.6,1.6,-2,0.69,i,0,-1.8
C=CCc1cccc2cc(C(=O)N3CCN(c4ccccn4)CC3)c(=O)oc12,-1.5,6.0,4,0.72,i,-1,-4.3
CCS(=O)(=O)Nc1ccc(C2=NN(S(=O)(=O)c3ccc(F)cc3)C(c3ccco3)C2)cc1 (stereo unspecified),37,3.5,-2,0.68,x,1,-11
CC1=Nc2ccccc2N=C(NC(=O)/C=C/C(=O)O)C1c1ccccc1 (stereo unspecified),-5.0,-6.5,-9,0.63,i,-2,0.4
O=C(CS(=O)(=O)c1ccc(Cl)cc1)NCCS(=O)(=O)c1ccc(Cl)cc1,3.7,1.0,-6,0.68,i,-5,7.7
O=C(COC(=O)CCCN1C(=O)c2cccc3cccc(c23)C1=O)Nc1cccc(Br)c1,-0.5,-55,-7,0.66,i,-4,5.9
O=C(Nc1cc(Cl)cc(Cl)c1)C1CCCC1,-2.5,4.2,-1,0.58,i,-1,0.6
CC(=O)c1c(C)[nH]c(C(=O)Nc2ccccc2Cl)c1C,3.1,2.2,5,0.7,i,2,-0.1
CN1c2ccccc2-c2nc3ccccc3n2C1c1ccco1 (stereo unspecified),0.1,i,1,0.7,x,3,-1.5
CC(=O)CCS(=O)(=O)c1ccc(Oc2ccc(S(=O)(=O)CCC(C)=O)cc2)cc1,1.7,2.5,12,0.66,x,18,3.5
Cc1nnc(SCc2ccon2)n1-c1ccccc1,0.9,5.3,-1,0.71,x,1,3.0
COc1cc(OC)cc(C(=O)NNC(=O)C(=O)Nc2cc(OC)c(Cl)cc2OC)c1,-9.2,x,-12,x,i,-2,7.0
O=C1CN(C(=O)COC(=O)CCC(=O)c2ccc(F)cc2)c2ccccc2N1,2.5,-2.1,-2,0.69,i,15,-7.3
Cc1ccc(/C=C2\SC(=S)N(CCCC(=O)Nc3ccccc3C(=O)O)C2=O)cc1,1.7,6.2,-1,0.66,i,5,-4.0
NNC(=O)CNS(=O)(=O)c1ccc([N+](=O)[O-])cc1,-3.6,2.3,-25,0.68,i,2,1.2
CC(CCc1ccccc1)NC(=O)c1ccc2nc(N3CCOCC3)sc2c1 (stereo unspecified),-7.1,3.0,-1,0.73,i,0,4.4
Cc1ccc(-n2nc3c(=O)n(CCCC(=O)NCc4ccccc4C)nc(C)c3c2C)cc1,-2.4,6.0,-2,0.68,i,0,0.5
CC(=O)Nc1cc(ON=C(C)C)cc([N+](=O)[O-])c1,-1.9,6.4,x,0.71,x,-4,3.8
COc1ccc(CCN2C(=O)C3C(C2=O)C2C=CC3C23CC3)cc1OC (stereo unspecified),5.5,3.4,-3,0.69,i,3,-6.3
CCOC(=O)c1sc(NC(=O)/C=C/c2cnn(C)c2C)c(C(=O)OC(C)C)c1C,-1.6,-303,-12,0.7,i,3,3.3
S=c1nc2ccccc2c2nc(-c3ccccc3Cl)[nH]n12,1.2,x,x,x,i,1,-2.4
COc1ccc(CCNCC(O)Cn2ccc3ccccc32)cc1OC (stereo unspecified),-0.7,2.6,-5,0.65,i,-1,-4.4
O=C(OCC(=O)N1CCc2ccccc21)c1n[nH]c(=O)c2ccccc12,1.2,2.2,0,0.64,i,-10,i
Cc1c(O)ccc2c(CN3CCN(Cc4ccccc4)CC3)cc(=O)oc12,-0.6,i,x,0.68,i,5,3.8
CCN(c1ccccc1)S(=O)(=O)c1cccc(C(=O)NCc2ccccc2CN2CCOCC2)c1,2.4,6.3,-6,0.71,i,-10,-5.3
Cc1ccc(S(=O)(=O)Nc2cccc3c2CCCC3)cc1,1.9,5.0,-1,0.7,x,1,-2.2
COc1cc(OC)cc(-c2c(C#Cc3ccsc3)c3cc(-c4ccc5cc[nH]c5c4)ccc3n2C)c1,4.0,3.8,-1,0.84,i,2,0.5
CCOc1ccccc1N(CC(=O)NC1CCCCC1)C(=O)CNC(=O)c1ccco1,0.8,-2.4,0,0.7,x,-8,-1.2
OC(COc1cccc2ccccc12)CN1CCN(c2ccc(Cl)cc2)CC1 (stereo unspecified),-1.1,0.0,-2,0.61,i,-8,-8.1
COc1ccc(OCCCC(=O)Nc2cc(S(=O)(=O)N3CCCCC3)ccc2C)cc1,-5.4,0.6,-8,0.67,i,-4,3.9
Cc1ccc(CCNC(=O)CN(C)S(=O)(=O)c2ccc3c(c2)c(=O)n(C)c(=O)n3C)cc1,-1.6,4.4,-4,0.73,i,1,-1.4
O=C(N/N=C/c1coc2ccccc2c1=O)c1cc(O)cc(O)c1,-2.8,x,x,x,i,3,x
C=CCc1cccc(/C=N/NC(=O)C(=O)Nc2ccc(C)cc2)c1O,0.7,x,0,x,i,-2,0.2
CN(Cc1nccn1C)C(=O)CCc1nnc(CCC2CCCCC2)o1,-1.4,0.3,x,0.68,i,-3,-5.3
Cc1ccc(F)cc1NCC(=O)Nc1ccc(Br)cc1,1.8,1.0,4,0.62,x,80*,-0.4
Cc1ccc(-c2ccccc2)n1-c1cccc(C(=O)O)c1,-0.5,1.3,x,0.67,i,-6,-4.1
CCOc1ccc(C(C)=O)cc1COc1ccc(-c2nnco2)cc1,1.4,1.1,-4,0.65,i,13,-0.1

# The list is partial (hit frequency here may not be typical).
